# Assay outcomes from PubChem.
# NPR1 antag – blocks ANP-stimulated signaling of human Npr1 receptor | HEK293 hNpr1 GloSensor cGMP, ANP-stimulated luminescence | actives 1.6% (n = 76,000) | Potency, µM (doses to about 46.3 µM), inactives show at the top dose activity change, negative = inhibition, usual class: inhibitors | P16066; active = well fitted inhibition curve with a large enough effect; inconclusive = small, poorly fitted or top-dose-only effect; inactive = no such curve, though single readings can be large or run the other way;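 note: nearly all actives have a fitted effect of over 60% in size; nearly all hits also lower the signal before the agonist is added; a reference antagonist and vehicle were the controls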
# Target sequence (P16066 whole entry, looked up): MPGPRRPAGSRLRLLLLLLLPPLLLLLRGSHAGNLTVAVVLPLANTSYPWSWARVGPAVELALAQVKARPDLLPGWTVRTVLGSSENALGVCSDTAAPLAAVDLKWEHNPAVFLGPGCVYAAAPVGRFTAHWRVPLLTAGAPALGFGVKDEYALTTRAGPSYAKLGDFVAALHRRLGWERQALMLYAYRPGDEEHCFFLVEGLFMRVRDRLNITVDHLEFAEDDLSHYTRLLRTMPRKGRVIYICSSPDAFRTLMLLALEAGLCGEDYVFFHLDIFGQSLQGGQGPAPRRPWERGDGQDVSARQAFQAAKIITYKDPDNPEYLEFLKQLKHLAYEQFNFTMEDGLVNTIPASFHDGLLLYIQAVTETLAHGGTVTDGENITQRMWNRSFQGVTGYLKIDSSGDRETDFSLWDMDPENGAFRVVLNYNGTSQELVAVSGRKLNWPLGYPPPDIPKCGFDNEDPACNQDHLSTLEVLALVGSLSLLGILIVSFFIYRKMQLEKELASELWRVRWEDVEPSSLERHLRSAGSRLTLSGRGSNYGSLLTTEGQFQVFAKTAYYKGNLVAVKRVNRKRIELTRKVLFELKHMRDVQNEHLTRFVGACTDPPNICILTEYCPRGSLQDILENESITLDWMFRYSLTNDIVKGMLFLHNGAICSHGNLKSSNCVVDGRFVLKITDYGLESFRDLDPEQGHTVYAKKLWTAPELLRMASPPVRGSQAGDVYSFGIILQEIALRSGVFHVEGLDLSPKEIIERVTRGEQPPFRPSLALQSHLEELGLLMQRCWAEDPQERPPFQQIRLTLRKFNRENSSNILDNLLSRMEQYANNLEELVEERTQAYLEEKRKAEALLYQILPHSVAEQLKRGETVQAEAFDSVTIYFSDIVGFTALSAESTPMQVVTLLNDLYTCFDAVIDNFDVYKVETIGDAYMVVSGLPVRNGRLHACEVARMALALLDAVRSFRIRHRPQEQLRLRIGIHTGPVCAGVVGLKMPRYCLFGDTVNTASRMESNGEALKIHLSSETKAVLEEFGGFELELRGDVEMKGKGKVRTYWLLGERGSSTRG
#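 Compound pre-incubated 30 min at room temperature on GloSensor-loaded HEK293 cells stably carrying hNpr1 and the pGS-40F cGMP biosensor. Stimulation uses hNppA at 0.1 nM final; luminescence is taken at baseline and 20 min post-agonist.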
# An asterisk follows results filed as active; u = inconclusive; [ ] = dose if it differs, or a comment. % is set by controls: 0 for no effect and ±100 for the full control effect; potency is the fitted concentration of half-maximal effect.
SMILES,NPR1 antag
O=C(NC1CC1)C1(CCO)CCN(c2ncccn2)C1 (configuration not stated),2.2%
O=C(Nc1ccccc1Cl)C1CCCN1c1nc2ncccc2o1 (configuration not stated),-16.0%
O=C(c1ccccc1Cl)N1CCC(N(Cc2ccccc2)C2CCOCC2)CC1,0.8%
CCc1nc2c(c(-c3ccc(O)cc3)n1)CN(Cc1ccnn1C)CC2,3.9%
CCc1cc(C(=O)N2CCC(Oc3ccccc3)(C(=O)O)CC2)cs1,3.4%
CN1CCC(Cc2ccc(C(=O)N3CCCC3)cc2)CC1,-2.5%
O=C(C1CC1)N1CCCC(c2nn(-c3ccccc3)c(=O)[nH]2)C1 (configuration not stated),0.3%[70.6 µM]
Cc1ccncc1C(=O)N1CCC(C(=O)N2CCCCCCNC(=O)CC2)CC1,0.1%
CNC(=O)[C@@H]1C[C@H](n2cc(CN(C)C(=O)Nc3ccccc3)nn2)CN1,8.0%
O=C1[C@@H]2C[C@@H](CN2Cc2cnc3ccccc3c2)Oc2ccccc2N1Cc1ccccc1,-19.4%
CCOc1ccc(C(=O)N2CCCC(n3cc(-c4nc(C)no4)nn3)C2)cc1 (configuration not stated),u
Cc1cc(C(=O)N2C[C@@H](CO)[C@H](c3ccccn3)C2)n(C)n1,-1.2%
O=C(NC1CCOCC1)c1ccc2c(c1)C1(CCN(CC3CC3)C1)CN2Cc1ccccc1 (configuration not stated),-0.4%
COc1cccc(NC(=O)N[C@H]2CCN(C(=O)c3cnccn3)[C@@H]2C(=O)N[C@@H](Cc2cccs2)C(N)=O)c1,4.4%
Cc1cc(OCCN2CCOCC2)c(C)c2c1CC[C@@H]([C@H](C)C(=O)N1CCCCC1)C2,17.8µM*
c1cncc(-c2noc(CCc3nc(C4CCOC4)no3)n2)c1 (configuration not stated),4.0%
CO[C@H]1[C@H](NC(=O)c2noc3c2CCCC3)c2ccccc2C12CCNCC2,-0.4%
CN1C[C@H](N(C)C)CCC[C@@H](C(=O)NCc2cc(F)cc(F)c2)CC1=O,-0.2%[70.6 µM]
COc1cc(O)ccc1CN1CCn2nnc(CCC(=O)N3CCCC3)c2C1,-26.0%
CC(C)c1cc(C(=O)N2C[C@@H](C)[C@](O)(C3CC3)C2)nc2ncnn12,4.1%
COc1cc(SC)ccc1C(=O)N[C@H]1C[C@@](O)(C(=O)N[C@H](C)C(N)=O)C[C@@H](O)[C@@H]1O,-0.5%
N#CC[C@@H](NC(=O)C1=C[C@@H](N)[C@@H](O)[C@H](O)C1)C(N)=O,1.6%[70.6 µM]
CCCc1noc(-c2ccn3c(CNC(=O)c4cc5ccccc5[nH]4)nnc3c2)n1,-2.4%
COC[C@@H]1CN(Cc2ccc[nH]2)C[C@H]1c1ccncc1,-7.2%
Cc1cccc(C(=O)N2CCc3c(nc(-c4ccncc4)nc3N(C)C)C2)c1,0.3%

# Rewritten field by field: entries from further up
COc1cccc(NC(=O)N[C@H]2CCN(C(=O)c3cnccn3)[C@@H]2C(=O)N[C@@H](Cc2cccs2)C(N)=O)c1
  NPR1 antag: 4.4%

COc1cc(O)ccc1CN1CCn2nnc(CCC(=O)N3CCCC3)c2C1
  NPR1 antag: -26.0%

O=C(NC1CCOCC1)c1ccc2c(c1)C1(CCN(CC3CC3)C1)CN2Cc1ccccc1 (configuration not stated)
  NPR1 antag: -0.4%

Cc1cc(OCCN2CCOCC2)c(C)c2c1CC[C@@H]([C@H](C)C(=O)N1CCCCC1)C2
  NPR1 antag: 17.8µM*

# Part of the list above in order of molar mass, lowest first:
SMILES,NPR1 antag
CN1CCC(Cc2ccc(C(=O)N3CCCC3)cc2)CC1,-2.5%
COc1cc(SC)ccc1C(=O)N[C@H]1C[C@@](O)(C(=O)N[C@H](C)C(N)=O)C[C@@H](O)[C@@H]1O,-0.5%
COc1cccc(NC(=O)N[C@H]2CCN(C(=O)c3cnccn3)[C@@H]2C(=O)N[C@@H](Cc2cccs2)C(N)=O)c1,4.4%

# Later entries:
SMILES,NPR1 antag
COc1cc(OC)cc(C(=O)N2CCCN(C)c3ccccc32)c1,-28.3%
c1ccc(-c2cc3c(ccn3Cc3ccncc3)c(N3CCOCC3)n2)cc1,-7.8%[70.6 µM]
COc1ccccc1NC(=O)C1c2ccccc2C(=O)N(Cc2ccccc2)C12CCCC2 (configuration not stated),-12.0%
CC(C)CN1CC(C(=O)NCc2nc(-c3ccccc3)no2)CC1=O (configuration not stated),-1.2%
NC(=O)N1CCCC(C(=O)NCCS(=O)(=O)c2ccc(F)cc2)C1 (configuration not stated),1.4%
COC(=O)c1ccc(NC(=O)N2CC3CN(C(C)C)CC(C2)O3)cc1,3.8%
O=S(=O)(c1ccccc1)N(C1CC1)C1CCN(c2ncncn2)CC1,3.0%
CCOc1cccc(-c2nnc(CCC(=O)N3CCC(Cc4ccccc4)CC3)c(=O)[nH]2)c1,-15.4%
Cc1cc(C)cc(C(=O)NCc2nnc3c(-c4nc(C)no4)cccn23)c1,6.2%
COc1cccc(CN2CC[C@H](c3nc4ccccc4[nH]3)C2)c1,2.5%[70.6 µM]
CNC(=O)c1cccc2c1CCN2C(=O)Nc1ccc(F)cc1,11.2µM*
Cc1noc(C)c1CC(=O)NCC1Cn2cccc2C(=O)N1CC(C)C (configuration not stated),-9.0%
CCNC(=O)N1CCOc2ccc(CCC(=O)N3CCCCC3c3cccnc3)cc2C1 (configuration not stated),8.2%
Cc1ccccc1Oc1c(CCC(=O)N2CCSCC2)c(C)nn1-c1ccccc1C,-18.9%
COc1ccc(CCc2nc3nccc(-c4ccc(OC)cc4)n3n2)cc1,-2.9%
Cc1ccccc1C(C(=O)NCc1nc(-c2ncccn2)no1)N(C)C (configuration not stated),2.8%
CCc1cccc(OC2CN(C(=O)C3CCCN(CC(N)=O)C3)C2)c1 (configuration not stated),-1.6%
CCOc1ccccc1NC(=O)N1CCCCCCNC(=O)[C@H]2CCC[C@H]21,4.6%
CCOc1ccccc1CN1C[C@@H](CO)[C@H](NC(=O)C2CC2)C1,2.2%
COc1ccc(CCC(=O)N2CCCCCC2CN2CCC(OC)CC2)cc1 (configuration not stated),-9.0%
Cn1cc(-c2cc(=O)c3ccnc(NCc4ccc(F)cc4)c3o2)cn1,-8.7%[70.6 µM]
O=S(=O)(Cc1cccc(Cl)c1)NCCc1noc(-c2ccccc2)n1,-4.0%
OCC1CN(c2ncccn2)CC12CCN(Cc1ccc3cc[nH]c3c1)CC2 (configuration not stated),6.4%
Cc1ccc(C(=O)N2CCC(c3nn(-c4ccc(F)cc4)c(=O)[nH]3)CC2)cc1,-16.5%
O=C(c1ccc(Cl)s1)N1CCC(n2cc(-c3nc(-c4ccccc4)no3)nn2)C1 (configuration not stated),u
# The list goes on:
SMILES,NPR1 antag
CN(C)Cc1nnc(C2CCCN(C(=O)CN(C)c3ccccc3)C2)n1C (configuration not stated),-3.1%
Cn1nc(C2CCN(C(=O)c3ccccc3F)CC2)c2c1CCOC2,4.8%
O=C(Cn1nccn1)NC1CC(c2cc(N3CCC(O)C3)ncn2)C1 (configuration not stated),18.9%
CN(C(=O)Cc1ccc(F)cc1)C1CCCc2ccccc21 (configuration not stated),0.0%[70.6 µM]
Cc1noc(C)c1C(=O)N1CCC2(CC1)CC(c1ccccc1)C(=O)N(C)C2 (configuration not stated),5.8%
CC1=NS(=O)(=O)N(Cc2ccc(F)c(F)c2)C=C1C(=O)O,-7.2%
CN(C)C(=O)c1cc2c(s1)CCC(C(=O)Nc1ccc(F)c(Cl)c1)C2 (configuration not stated),-21.1%
O=C(c1cnc2c(c1)N([S+](=O)([O-])c1cccnc1)CCC2)N1CCCC[C@@H]1c1ccccc1,2.2%
C=CCNC(=O)c1cnn2ncccc12,-4.7%[70.6 µM]
COc1ccc(OC)c(NC(=O)C2CCCCC(=O)N2)c1 (configuration not stated),7.6%
COc1cccc(CNC(=O)[C@@H]2C[C@@H](O)CN2C2CCN(C(=O)Cc3c[nH]c4ccccc34)CC2)c1,4.2%
COc1ccccc1C(=O)N1CCC2(CC1)N(C)C(=O)CS2(=O)=O,2.8%
CCC(=O)NCC1c2cc(OC)c(OC)cc2CCN1C(=O)Nc1cccc(C)c1 (configuration not stated),3.1%
Cc1cc(C(=O)NCC2Cn3cccc3C(=O)N2C)n(C)n1 (configuration not stated),-10.5%
COc1nc2nc(CC3CC3)n(C)c2cc1-c1ccc(O)c(F)c1,-13.4%[70.6 µM]
COc1ccc(-c2nc(C3CC(=O)N(c4ccc(F)cc4)C3)no2)cc1 (configuration not stated),-19.4%
O=C(O)[C@H](Cn1ccc(=O)[nH]c1=O)NC1CCCCC1,0.8%[70.6 µM]
COc1ccc(CCCN2C(=O)O[C@@H]3CN(S(=O)(=O)N(C)C)C[C@@H]32)cc1,-2.6%
COc1ccc(N2CC(C(=O)N3CCC(C(=O)NCC(F)(F)F)C3)NC2=O)cc1 (configuration not stated),15.6%
Cc1cccc(N2CCN(C(=O)c3ccc4c(c3)C(O)CCCCCN4C)CC2)c1 (configuration not stated),-13.1%
O=C(Nc1cnc(-c2cccc(Cl)c2)nc1)c1ccccc1F,-15.3%
CNc1ncccc1C(=O)N1CCCC2(C1)C(=O)N(C)c1ccccc12 (configuration not stated),-3.0%
COCCCNC(=O)CC1CCCCN(Cc2ccccc2)C1=O (configuration not stated),1.2%
Nc1cccc(-c2ccc(N3CCOCC3)nn2)c1,u
COc1ccc(-c2nc(-c3nnn4c3COC(c3ccc(C)cc3)C4)no2)cc1OC (configuration not stated),-2.6%

# Gathered by group, those above with a COOH group.
SMILES,NPR1 antag
CCc1cc(C(=O)N2CCC(Oc3ccccc3)(C(=O)O)CC2)cs1,3.4%
CC1=NS(=O)(=O)N(Cc2ccc(F)c(F)c2)C=C1C(=O)O,-7.2%
O=C(O)[C@H](Cn1ccc(=O)[nH]c1=O)NC1CCCCC1,0.8%[70.6 µM]

# Next records.
SMILES,NPR1 antag
O=C(Nc1cccn2nc(C3CCC3)nc12)c1ccccn1,-20.3%
CCN(CC)c1ncccc1CNC(=O)C1CCOC1 (configuration not stated),8.5%
Cc1noc(C2CCCN2C(=O)c2cccc(CC3CCNCC3)c2)n1 (configuration not stated),-0.2%
C[C@@]1(O)CCN(Cc2ccc3c4c(cccc24)C(=O)OC3)C[C@@H]1O,-0.2%
C[C@H]1[C@@H]2[C@@H](O)C([C@H](C)C(=O)N3CCCC3)CC[C@@]2(C)CC[C@@H]1NC(=O)c1ccccc1 (some centres not stated),-0.8%[70.6 µM]
CCCc1noc(-c2cccn3c(CNC(=O)c4ccc(OC)cc4)nnc23)n1,-0.6%
COc1cccc(CN2CCC(n3cc[nH]c3=O)CC2)c1,4.7%[70.6 µM]
COc1ccc(C(=O)N2CCC(C3CCN(S(C)(=O)=O)CC3)C2)c(OC)n1 (configuration not stated),8.5%
O=C(CC1CCCN(c2cnn(CC3CC3)c(=O)c2)C1)NC1CCCCC1 (configuration not stated),-0.9%
O=C1CCN(C(=O)C2CCN(C(=O)CCc3c[nH]c4ccccc34)CC2)CCCCCCN1,-7.3%
COCCN1CCC(N2CCN(C(=O)CC3CCCCC3)CC2)C1=O (configuration not stated),4.3%
Cc1noc(C2CC3(CCN(C(=O)CCCc4c[nH]c5ccccc45)CC3)CN2C)n1 (configuration not stated),-17.6%
COc1cccc(C(=O)N2CCCCC2c2nc(-c3cnccn3)n[nH]2)c1 (configuration not stated),-7.7%
Cc1cccc(CC(C)NC(=O)c2ccc3nc(Cc4ccccc4F)oc3c2)n1 (configuration not stated),0.6%
CN(Cc1ccccn1)Cc1ccccc1C(F)(F)F,18.8%[70.6 µM]
CNC(=O)[C@@H]1C[C@@H](O)CN1C1CCN(C(=O)C2(c3ccccc3)CC2)CC1,-9.2%
CCNC(=O)[C@@H]1CCCN1C1(C(=O)NC)CCCCC1,4.0%[70.6 µM]
CC(C)c1noc(-c2cn(C3CCN(C(=O)C4(c5ccccc5)CC4)CC3)nn2)n1,0.0%
CCCc1noc(-c2ccn3c(CNC(=O)Cc4ccccc4OC)nnc3c2)n1,2.0%
CCCn1ccc2sc(C)c(C(=O)N3CCN(C(C)C)CC3)c2c1=O,-2.8%
CCc1cc(=O)n(CC(=O)Nc2ccc(C(C)C)cc2)c(N2CCOCC2)n1,-0.4%
CC1Oc2ccc(NC(=O)c3ccccc3F)cc2CN(Cc2ccc(Cl)cc2)C1=O (configuration not stated),-24.5%
Cc1ccc(-n2nc(C(=O)N3CC[C@](C)(O)C(C)(C)C3)c(O)cc2=O)cc1,0.3%
CCOc1ccccc1NC(=O)Cn1nc2c(cc1=O)CCCCC2,-5.0%
O=C(c1scc2c1OCCO2)N1CCC2(CC1)c1ccccc1CC2O (configuration not stated),3.2%
# Continuation.
SMILES,NPR1 antag
COc1cccc(C(=O)N2CCC(N3C[C@H](O)C[C@H]3C(=O)NCc3nc4ccccc4n3C)CC2)c1,0.9%
Cn1cnc(S(=O)(=O)NCC2Cn3cccc3CN2Cc2ccccc2)c1 (configuration not stated),7.8%
O=C(C[C@H]1NC(=O)c2ccccc2NC1=O)NC1CCN(Cc2ccc(F)cc2)CC1,2.0%
COc1ccc(C(=O)NC(C(=O)N2CCCCC2)C2CCN(C(=O)c3ccc(F)cc3)CC2)cc1 (configuration not stated),-1.9%
CC(C)(C)CC(=O)N1C[C@@H]2C[C@H]1C(=O)Nc1ccccc1O2,4.6%[70.6 µM]
O=C([C@@H]1C[C@H](F)CN1C(=O)c1ccc(OC(F)(F)F)cc1)N1CCCCC1,0.9%
CN(Cc1ccccc1)C(=O)CC1CCN(C(=O)c2ccncc2)C1 (configuration not stated),0.0%
Cc1cnc(C2CC2)n1C1CCN(C(=O)C2CC2)CC1,2.3%
O=C1NCCOCCCN(C(=O)Nc2ccccc2F)[C@H]2CCC[C@@H]12,8.3%
COc1cc(C(=O)N2CCC[C@H]2c2nc(-c3ccccc3)no2)cc(OC)c1OC,-0.8%

# These rows are one share of the data; rates above refer to the full screens.
